Cruzain inh Det: inhibitors of Trypanosoma cruzi cruzain with detergent; P25779; purified cruzain, Z-FR-AMC fluorescence, 0.01% Triton; Potency, µM, inactives show max response, negative = inhibition, actives largely listed as inhibitors; hit rate 0.43% among 200,000;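 note: plate controls were neutral wells for no effect and buffer without enzyme for full effect; nearly all actives have a fitted effect of over 40% in size; top concentration of the series not given in the record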
Target sequence (P25779 123-467 limits assumed): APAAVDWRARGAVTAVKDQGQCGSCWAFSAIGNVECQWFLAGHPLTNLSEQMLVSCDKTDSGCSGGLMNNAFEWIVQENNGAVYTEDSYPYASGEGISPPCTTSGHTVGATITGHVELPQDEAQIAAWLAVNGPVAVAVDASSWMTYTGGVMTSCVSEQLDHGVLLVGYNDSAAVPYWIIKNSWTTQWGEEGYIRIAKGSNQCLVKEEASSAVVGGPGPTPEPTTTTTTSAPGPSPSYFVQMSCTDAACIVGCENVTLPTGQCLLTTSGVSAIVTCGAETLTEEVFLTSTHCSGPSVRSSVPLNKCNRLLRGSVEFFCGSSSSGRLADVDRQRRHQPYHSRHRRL
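Compounds were screened in titration against cruzain (1.5 nM) with 0.01% Triton X-100 to counter colloidal aggregation. Activity was the AMC fluorescence increase over 60 s after adding 2 uM Z-FR-AMC at pH 5.5.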
Lassa entry inh: blocks Lassa virus binding to or entry into cells; Lassa virus pseudotype entry inhibition, cell reporter; control for the full effect not named in the record; AID 540256; Potency, µM (top dose mostly 37.9 µM), without a hit: at the highest dose activity change, negative = inhibition, hits mostly inhibitors; hit rate 1.2% among 300,000; active means well fitted inhibition curve with a large enough effect; inconclusive means small, poorly fitted or top-dose-only effect, or effect the other way; inactive means flat fitted curve, though single readings scatter; tested in HEK293 cells; note: % is set by controls: 0 for no effect and ±100 for the full control effect; nearly all actives have a fitted effect of over 50% in size; luciferase read-out
Cruzain noTriton: blocks cruzain activity in detergent-free assay. P25779. purified cruzain, Z-FR-AMC fluorescence, no detergent. Potency, µM, for inactives: max response, negative = inhibition, usual class: inhibitors. hit rate 2.3% among 200,000. AID 1476;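 note: plate controls were enzyme without inhibitor for no effect and buffer without enzyme for full effect; nearly all actives have a fitted effect of over 40% in size; top concentration of the series not given in the record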
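Purified cruzain at 1.5 nM, pre-incubated 15 min with compound at room temperature in 100 mM sodium acetate pH 5.5, 5 mM DTT, 0.00005% Triton X-100. Reaction started with 2 uM Z-FR-AMC; AMC fluorescence increase over 60 s gives rate.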
SARS PLpro yeast: blocks SARS-CoV papain-like protease in a yeast assay | S. cerevisiae expressing SARS-CoV PLpro, growth rescue; control for the full effect not named in the record | Potency, µM (doses to about 32.9 µM), inactives show at the highest dose activity, positive = growth rescue | hit rate 0.19% among 330,000 | AID 485353; active means well fitted rising curve with a large enough effect; inconclusive means small, poorly fitted or top-dose-only effect; inactive means no such curve, though single readings can be large or run the other way; note: 0% is about no effect; nearly all actives have a fitted effect of over 55% in size; growth read by luminescence after 48 h
RE007 growth inh: less growth of the S. pombe RE007 Vpr strain. S. pombe RE007 Vpr strain, BacTiter-Glo ATP luminescence, 24 h; control for the full effect not named in the record. Potency, µM (titrated, usually from 92.2 µM), without a hit: at the highest dose activity change, negative = less growth. hit rate 0.21% among 360,000. AID 651644; active = well fitted falling curve with a large enough effect; inconclusive = small, poorly fitted or top-dose-only effect; inactive = no such curve, though single readings can be large or run the other way;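 note: % is set by controls: 0 for no effect and ±100 for the full control effect; nearly all actives have a fitted effect of over 50% in size; the assay follows cell death caused by Vpr and the record does not say whether a fall means rescue or toxicity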
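Fission yeast RE007 carrying one integrated HIV-1 vpr copy, seeded at OD 0.01 in PMG+AL medium with 23 nL pinned compound. Grown 24 h at 30 degrees; viability read by BacTiter-Glo luminescence after 5 min.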
NS1 function inh: inhibitors of influenza NS1 protein function; S. cerevisiae slowed by influenza A NS1, growth recovery by OD600; Potency, µM (series often up to 46.1 µM), for inactives: top-dose activity, positive = more growth; hit rate 0.4% among 270,000; AID 2326; active means well fitted rising curve with a large enough effect; inconclusive means small, poorly fitted or top-dose-only effect; inactive means no such curve, though single readings can be large or run the other way; note: nearly all actives have a fitted effect of over 50% in size
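Growth recovery, yeast-based: influenza A NS1 expressed in S. cerevisiae causes slow growth, and suppressors are detected by OD600. The parent strain without NS1 is used as positive control.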
StopGo reporter: lowers the luciferase signal of an FMDV 2A StopGo reporter | human cells with a luciferase reporter of 2A StopGo recoding; control for the full effect not named in the record | AID 1159524 | hit rate 1.2% among 410,000 | Potency, µM (series often up to 57.9 µM), for the others: at the top dose signal change, negative = less light; active = well fitted falling curve with a large enough effect; inconclusive = small, poorly fitted or top-dose-only effect; inactive = no such curve, though single readings can be large or run the other way; tested in HEK293T cells; note: % is set by controls: 0 for no effect and ±100 for the full control effect; nearly all actives have a fitted effect of over 45% in size; luciferase light after 4 h
MARV entry inh: blocks Marburg virus binding to or entry into cells; Marburg virus pseudotyped entry inhibition, cell reporter; control for the full effect not named in the record; about a third of the inactives were read at about 46 µM; Potency, µM (titrated, usually from 37.8 µM), for inactives: at the highest dose activity change, negative = inhibition, usual class: inhibitors; hit rate 1.8% among 300,000; AID 540276; active = well fitted inhibition curve with a large enough effect; inconclusive = small, poorly fitted or top-dose-only effect, or effect the other way; inactive = flat fitted curve, though single readings scatter; tested in HEK293 cells; about a fifth of its hits are not listed in these tables; note: % is set by controls: 0 for no effect and ±100 for the full control effect; luciferase read-out
Numbers without * were called inactive; u = inconclusive; x = not tested or not shown; & = joins results of further samples; [ ] = remark or other dose. Unless noted, calls come from the whole dose curve; as a rule, active = well fitted curve in the direction sought with a large enough effect; inconclusive = small, poorly fitted or top-dose-only effect, or another doubt; inactive = no such curve, though single readings can be large; an effect the other way counts as inactive or inconclusive. Potency is the fitted concentration of half-maximal effect.

Compound,Cruzain inh Det,Lassa entry inh,Cruzain noTriton,SARS PLpro yeast,RE007 growth inh,NS1 function inh,StopGo reporter,MARV entry inh
COc1ccc(NC(=S)NCCCc2ccccc2)cc1,u,-12%,u,-10%,-4%,-48%,55%[activator],-14%
COc1ccc(N=C2SCC(=O)N2Cc2ccccc2)cc1,x,-19%,x,-10%,6%,x,-22%,-4%[46.1 µM]
O=C(CCOc1ccccc1)NCC(c1ccco1)N1CCCCC1 (stereo not given),-4.5%,18%,5%,5%,3%,-3%,-2%,-2%
N#Cc1ccccc1OCC(=O)N1CCN(CC(=O)Nc2ccc(F)cc2)CC1,x,-16%,x,-5%,10%,x,-5%,0%
COc1ccc(OC)c(NS(=O)(=O)c2ccc(Cl)s2)c1,-6.0%,4%,-6%,25%,-8%,-7%,22%,-16%
NC(=O)NC(=O)CC1S/C(=N/N=C2\CSC(=O)N2)NC1=O (stereo not given),x,1%[46.1 µM],x,1%,5%,6%,-3%,-14%[46.1 µM]
Cc1ccc(N(C(=O)c2sc(C)nc2C)C(C(=O)NC(C)(C)C)c2ccncc2)cc1 (stereo not given),x,-13%,x,-1%,-2%,-2%,-15%,0%[46.1 µM]
O=C(Nc1ccc2c(c1)OCO2)C1CC(c2cccc(Br)c2)=NO1 (stereo not given),x,-6%[46.1 µM],x,4%,9%,-6%,12%,-6%[46.1 µM]
Cc1c(C(=O)NCC2CCCO2)sc2nc(-c3ccc(F)cc3)cn12 (stereo not given),-1.7%,x,-17%,-3%,-14%,-20%,u,x
COc1cc(C2c3c(-c4cc(C)ccc4O)n[nH]c3C(=O)N2CCCO)ccc1OCCC(C)C (stereo not given),-19%,u,u,x,x,x,u,u
CN1CCN(CCn2c(=S)[nH]c3ccccc3c2=O)CC1,x,-29%,x,1%,11%,4%,-2%,2%
Cc1cc(=O)c2cc(C(=O)Nc3ccc(C)c(C)c3)ccc2[nH]1,-4.3%,19%[46.1 µM],6%,x,x,x,16%,u
COc1ccc(CCNC(=O)CSc2nc(O)c(CCC(C)C)c(=O)[nH]2)cc1OC,-4.5%,-2%,29%,-10%,-3%,9%,x,11%
C=CCNC(=O)C(=O)NN=C1CCN(C)CC1,7.7%,11%,-5%,-1%,1%,-4%,x,3%
O=C(NCc1cccnc1)C1c2ccccc2C(=O)N1Cc1ccccc1 (stereo not given),0.8%,x,-3%,7%,-5%,3%,1%,-1%
CCOC(=O)C1CCCN(CCSc2ccc(C)cc2)C1 (stereo not given),x,-9%,x,-1%,-3%,-12%,-8%,-4%
C/C(=N/NC(=O)COc1cc(C)ccc1C(C)C)C(=O)O,x,-4%[46.1 µM],x,-2%,12%,x,1%,u
CCCN(C(=O)CSCc1ccccc1C)c1c(N)n(Cc2ccccc2)c(=O)[nH]c1=O,x,u,x,2%,-18%,x,-17%,-9%
O=C(Nc1nc(-c2cccs2)cs1)c1ccc(S(=O)(=O)N2CCCCC2)cc1,0.5%,x,u,-4%,-5%,-31%,16µM*,-3%
O=C(CN1CCCCC1)Nc1nc(-c2ccccc2)cs1,x,-22%[46.1 µM],x,6%,-6%,-4%,6%,-30%[46.1 µM]
CCOC(=O)Cc1csc(/C(=N/O)C(N)=O)n1,1.9%,20%,-6%,2%,15%,-5%,33%[activator],1%
Cc1sc(-c2c(C#N)c(N)nc3c2CCCCCC3)cc1[N+](=O)[O-],x,24%,x,x,30%,x,-15%,1%[46.1 µM]
Cc1cc(C(=O)NN)c(Cl)cc1Cl,x,x,x,-6%,7%,2%,-1%,x
CCc1ccc(NC(=O)CC2C(=O)N(c3cccc(OC)c3)C(=O)N2CCOC)cc1 (stereo not given),x,x,x,1%,8%,10%,-1%,x
CCOC(=O)c1ccccc1OCc1cc(/C=N/NC(=O)c2ccncc2)ccc1OC,x,-17%,x,-1%,5%,1%,u,u
C=CCn1c(C(CC)CC)nc2ccccc21,x,0%,x,-1%,-1%,1%,-23%,11%[14.2 µM]
COc1ccccc1N1CCN(C(=O)Oc2ccccc2)CC1,-2.5%,-4%,6%,-6%,5%,-63%,x,-6%
Cc1noc(NS(=O)(=O)c2ccc(NC(=O)CSc3nc4c(cc3C#N)CCCCC4)cc2)c1C,-6.2%,-4%,u,2%,0%,-122%,4%,14%
c1ccc(CCn2nnnc2CN2CCN(C3CCCC3)CC2)cc1,4.1%,u,4%,10%,1%,-5%,-5%,-3%
CCCCCCOc1ccc(/C=N/NC(=O)C2CC2)cc1,x,u,x,-1%,-3%,-9%,-13%,-5%[46.1 µM]
Cc1ccccc1CNC(=O)C1CCCN(c2nnc(C)c3c(C)n(-c4ccccc4)nc23)C1 (stereo not given),x,x,x,-14%,3%,10%,19%,x
COc1ccc(C2/C=C\CN(S(=O)(=O)c3ccc(C)cc3)[C@H](Cc3ccccc3)C(=O)N2Cc2ccc(F)cc2)cc1 (stereo not given in full),x,x,x,-3%,1%,u,-4%,x
Cc1ccccc1-n1c(SCC(=O)Nc2ccccc2Cl)nc2n[nH]c(C)c2c1=N,x,x,x,2%,19%,0%,-24%,x
C=CCNC(=O)/C(=C\c1ccc(OC)cc1)NC(=O)c1ccc([N+](=O)[O-])cc1,x,6%,x,0%,-4%,x,5%,1%[46.1 µM]
CCOc1ccc(OCC)c(NC(=O)C2CCN(c3nn4c(=O)cc(C)nc4s3)CC2)c1,1.0%,-4%,17%,0%,8%,15%,-2%,-1%&-1%
COc1ccc(-c2oc3ncn4nc(Cc5ccccc5)nc4c3c2-c2ccc(OC)cc2)cc1,-9.9%,1%,10µM*,7%,-4%,-3%,-2%,-13%&-13%
CC(c1ccon1)N(C)Cc1c(C(=O)N(C)Cc2ccccc2)nc2ccccn12 (stereo not given),x,-9%,x,0%,-15%,-1%,-5%,-14%[46.1 µM]
Cc1ccc2c(c1)C(=O)C(=O)N2Cc1ccc(OCCC(C)C)cc1,0.7%,1%[46.1 µM],-14%,x,x,x,-19%,-12%[46.1 µM]
O=C(Cn1c(=O)c2c3c(sc2n(Cc2ccccc2)c1=O)CCCC3)NCCO,x,0%[46.1 µM],x,3%,4%,-7%,0%,u
COC(=O)c1sc(N2CCN(Cc3ccccc3)CC2)nc1N,x,-10%[46.1 µM],x,1%,-5%,-2%,10%,0%[46.1 µM]
Cc1cc(=O)[nH]c(Nc2cccc(Cl)c2C)n1,x,x,x,1%,3%,0%,39%[activator],x
O=C(NCc1ccco1)c1ccc(NC(=O)C2COc3ccccc3O2)cc1 (stereo not given),-0.2%,9%,2%,-3%,15%,16%,u,-19%[46.1 µM]
CCOc1cc(C(=O)N[C@@H](C)C(=O)N2CCC3(CC2)NCCc2[nH]cnc23)cc(OCC)c1OCC,x,23%[46.1 µM],x,0%,-14%,5%,5%,-22%[46.1 µM]
CC(=O)c1cccc(NC(=O)C2C3C=CC(C4CC34)C2C(=O)O)c1 (stereo not given),-1.9%,0%,2%,6%,-2%,-3%,0%,3%
CN(C)CCNC(=O)/C(=C/c1ccc(-c2cccc([N+](=O)[O-])c2)o1)NC(=O)c1ccccc1,-18%,u,-20%,26%,-20%,8%,-29%,u
CC(OC(=O)Cc1n[nH]c(=O)c2ccccc12)C(=O)Nc1cccc([N+](=O)[O-])c1 (stereo not given),x,2%,x,-2%,2%,x,u,u
CSCCC(NS(=O)(=O)c1cccs1)C(=O)NCc1ccc(C)cc1 (stereo not given),-2.4%,u,6%,20%,-5%,10%,8%,9%
Cc1cccc(-c2nc(-c3ccc4c(c3)[nH]c(=O)n4C)no2)c1,0.7%,25%[46.1 µM],2%,x,x,x,32%[activator],x
COc1ccc(NC(=O)C2CCCCN2S(=O)(=O)c2ccc(F)cc2)c(OC)c1 (stereo not given),1.3%,0%,-9%,-9%,13%,-20%,-11%,3%
Cc1cccc(C(=O)Nc2nnc(S(=O)(=O)N3CCC(C)CC3)s2)c1,-4.5%,u,-6%,-6%,-8%,3%,6%&1%,5%&5%[46.1 µM]
CC1CCCN(Cc2nc3c(c(=O)n(C)c(=O)n3C)n2CCc2ccccc2)C1 (stereo not given),2.7%,9%,10%,-6%,6%,1%&-6%,-18%,0%
COC(=O)c1ccccc1NC(=O)CNc1cc(OC)c(OC)cc1C,-4.2%,x,25%,8%,17%,-15%,-26%,x
COc1cccc(-n2nc(-c3ccnn3-c3cccc(Cl)c3)c(=O)n(C)c2=O)c1,x,x,x,3%,-5%,-15%,u,x
COc1ccc(CC(=O)Nc2ccc(/C(C)=N/NC(=O)c3cccc([N+](=O)[O-])c3)cc2)cc1,2.2%,-20%,u,-2%,6%,15%,14%,-22%[46.1 µM]

3 compounds picked at random from those above:
Compound,Cruzain inh Det,Lassa entry inh,Cruzain noTriton,SARS PLpro yeast,RE007 growth inh,NS1 function inh,StopGo reporter,MARV entry inh
COc1ccc(CC(=O)Nc2ccc(/C(C)=N/NC(=O)c3cccc([N+](=O)[O-])c3)cc2)cc1,2.2%,-20%,u,-2%,6%,15%,14%,-22%[46.1 µM]
COC(=O)c1ccccc1NC(=O)CNc1cc(OC)c(OC)cc1C,-4.2%,x,25%,8%,17%,-15%,-26%,x
CC1CCCN(Cc2nc3c(c(=O)n(C)c(=O)n3C)n2CCc2ccccc2)C1 (stereo not given),2.7%,9%,10%,-6%,6%,1%&-6%,-18%,0%

From PubChem
